Compound activity from PubChem BioAssay.
UCH37 DUB inh = blocks the human deubiquitinase UCH37; Q9Y5K5; hit rate 0.33% among 330,000; purified proteasome/UCH37, Ub-AMC cleavage fluorescence; inhibition, % (no concentration beside the values);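 active = mean of two replicates above 20%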;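 also: 0% = compound-free wells with enzyme and 100% = wells lacking proteasome; stock transfer was 100 nL into about 20 µL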
Target sequence (Q9Y5K5 whole entry, looked up): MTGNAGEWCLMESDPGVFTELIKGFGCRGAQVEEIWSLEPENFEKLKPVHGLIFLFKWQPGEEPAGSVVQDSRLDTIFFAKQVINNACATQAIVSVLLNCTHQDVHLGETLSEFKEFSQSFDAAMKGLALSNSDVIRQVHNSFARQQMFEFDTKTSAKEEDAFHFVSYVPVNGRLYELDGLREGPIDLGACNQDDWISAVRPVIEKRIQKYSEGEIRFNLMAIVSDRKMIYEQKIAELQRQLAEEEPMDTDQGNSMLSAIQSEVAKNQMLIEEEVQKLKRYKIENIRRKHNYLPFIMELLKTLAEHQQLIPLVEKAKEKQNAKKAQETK
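Material: Human UCH37 enzyme supplied as purified proteasome complex | Schedule: 30 min compound-proteasome preincubation then 25 min substrate reaction, room temperature | Detection: AMC fluorescence from Ub-AMC cleavage, excitation 355 nm, emission 460 nm | Benchmarks: Wells without proteasome as full block, compound-free enzyme plus substrate as uninhibited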
ALR inh = inhibitors of human sulfhydryl oxidase ALR | P55789 | purified ALR, DTT oxidation, H2O2 HRP-luminol luminescence | inhibition, % (no concentration beside the values) | hit rate 3.8% among 290,000;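 active = mean and each replicate at 75% or more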;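 also: stock transfer was 7.5 nL into about 7.5 µL; 0% = neutral wells and 100% = wells with inactivated enzyme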
Target sequence (P55789 whole entry, looked up): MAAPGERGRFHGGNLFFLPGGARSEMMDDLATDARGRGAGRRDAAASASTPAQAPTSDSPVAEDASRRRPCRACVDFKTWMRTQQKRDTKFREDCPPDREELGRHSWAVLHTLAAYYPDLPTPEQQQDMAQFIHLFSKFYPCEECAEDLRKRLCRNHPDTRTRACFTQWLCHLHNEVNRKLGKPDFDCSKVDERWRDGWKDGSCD
LANA-H2A inh = blocks KSHV LANA binding to histone H2A/H2B; Q9QR71; cell-free LANA-H2A/H2B peptide, fluorescence polarization; inhibition, % (no concentration beside the values); hit rate 0.6% among 320,000; AID 2629; in the data active = inhibition mostly above about 10%, no sharp cut-off; inactive = mostly below about 6.7%;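 also: stock transfer was 7.5 nL into about 10 µL; 0% = median of vehicle wells and 100% = median of positive control wells; one replicate is shown; the record names a cut of 25% in any replicate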
Ecoli growth = E. coli growth inhibition; Escherichia coli growth, OD600, 23 h; hits give low values; OD600 absorbance (concentration not given with the values); hit rate 0.21% among 330,000;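 active = OD600 absorbance below the run mean of sample wells minus 3.6 SD, in any replicate, cut at about 0.56 in these data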;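 also: stock transfer was 300 nL into about 60 µL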
FGF22 binding = binders of recombinant human FGF22 by thermal shift | SYPRO orange fluorescence; percent of sucrose octasulfate shift, DMSO zero | calls only at 9.99 µM | hit rate 1.5% among 340,000 | Q9HCT0;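 active = melting point raised past a set limit in the mean and every replicate; three in four hits are not shown here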
HNF4A DNA FP = change in binding of human HNF4 alpha to DNA. AID 1224865. hit rate 0.3% among 360,000. P41235. activity change, % at 10 µM. HNF4a-FITC DNA binding, fluorescence polarization, 1 h; in the data active = activity change above about 30%, passing the limit was not always enough;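 also: controls were the assay level and a saturating level of protein; the project sought stronger binding though the title names inhibitors; some compounds called inactive have numbers as strong as hits; positive values seem to mean higher polarization but the record does not say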
Target sequence (P41235 whole entry, looked up): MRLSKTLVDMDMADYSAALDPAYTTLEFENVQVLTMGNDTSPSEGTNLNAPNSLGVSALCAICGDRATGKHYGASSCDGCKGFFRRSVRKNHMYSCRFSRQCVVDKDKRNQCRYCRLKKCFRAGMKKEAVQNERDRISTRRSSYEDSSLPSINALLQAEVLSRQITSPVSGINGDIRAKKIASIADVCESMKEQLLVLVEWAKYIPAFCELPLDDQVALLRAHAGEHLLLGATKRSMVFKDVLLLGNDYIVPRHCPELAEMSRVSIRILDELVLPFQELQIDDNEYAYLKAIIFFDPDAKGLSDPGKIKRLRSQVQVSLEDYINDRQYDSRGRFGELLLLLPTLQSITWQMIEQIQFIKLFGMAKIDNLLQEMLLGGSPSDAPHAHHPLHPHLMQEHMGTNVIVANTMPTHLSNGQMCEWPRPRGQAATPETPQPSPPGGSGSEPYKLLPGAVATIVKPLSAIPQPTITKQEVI
B2AR ag = human beta-2 adrenergic receptor agonism by FAP. P07550. Am2.2-beta2AR cells, FAP receptor internalization, flow cytometry; reference of the scale not given here. response, % (no concentration beside the values). hit rate 0.43% among 340,000. AID 504454;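 active = response above a set limit, near 3 SD of response in nonfluorescent compounds, cut at about 42% in these data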;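 also: stock transfer was 100 nL into about 11 µL; a reference agonist was the positive control; negative values mostly stem from fluorescent compounds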
Active calls of the source: *; i = inactive; · = no result given.

SMILES	UCH37 DUB inh	ALR inh	LANA-H2A inh	Ecoli growth	FGF22 binding	HNF4A DNA FP	B2AR ag
CCn1c(N2CCN(S(=O)(=O)c3ccc(F)cc3)CC2)nc2ccccc21	·	-33	-3.9	·	i	-8.6	-1
CN(CC(=O)Nc1ccc(F)cc1)C(=O)COC(=O)c1ccc(=O)n(Cc2ccccc2)n1	3.9	·	-5.6	0.72	i	-2.3	-7
O=C(CCN1C(=O)c2ccccc2C1=O)NCc1ccco1	0.8	-4	0.5	0.71	i	1.5	-3
CCOC(=O)Cc1ncccc1C(=O)Nc1ccc(OC)cc1	0.2	11	-1.7	0.73	i	0.7	0
CN(CC(=O)OCC(=O)NC1CCCC1)S(=O)(=O)c1ccc(Cl)cc1	-0.2	·	-0.5	0.68	i	1.2	11
OCc1ccccc1SSc1ccccc1CO	0.5	98*	-3.1	0.63	i	-2.8	13
COc1ccc2c(=O)c3c(=O)n(Cc4ccco4)c(-c4ccccc4)nc3oc2c1	4.9	20	0.2	0.72	·	-3.5	-9
COCCN(C(=O)CCCC(=O)Nc1ccccn1)C(C(=O)NC1CCCCC1)c1ccc(C)cc1 (centres undefined)	-1.4	·	-10	0.78	·	1.1	32
Cc1cc(NC(=O)CSC2=NS(=O)(=O)c3cc(F)ccc3N2)no1	2.0	1	-1.4	0.62	i	-1.6	-13
CCOC(=O)Nc1c(C(=O)OC)[nH]c2cccc(OC)c12	-12	20	2.3	0.73	·	-0.9	2
O=C(CN1C(=O)NC(c2ccccc2)(c2ccccc2)C1=O)NCc1cccs1	5.2	·	·	0.71	i	3.2	2
O=[N+]([O-])c1cc(S(=O)(=O)N2CCCC2)ccc1NN=C1CCCC1	4.4	·	2.5	0.75	·	1.9	-9
COc1ccc(C(C)C)cc1S(=O)(=O)N1CCN(C)CC1	0.8	-5	3.2	0.73	·	2.5	9
Cc1cccc(-n2ccc(=O)c(C(=O)Nc3ccc(S(=O)(=O)Nc4nccc(C)n4)cc3)n2)c1	9.7	-1	0.8	0.7	i	2.9	-11
O=C(COC(=O)c1ccc(O)cc1)NCc1ccc2c(c1)OCO2	5.0	-3	1.1	0.67	i	6.6	-3
COc1cc(SC#N)ccc1N=Cc1c(C)[nH]n(-c2cccc3ccccc23)c1=O	-2.3	99*	-1.2	0.77	·	·	·
CC(C)C(=O)Nc1ccc(C(=O)N/N=C/c2cc(Br)cc(Br)c2O)cc1	·	-10	-3.5	·	i	8.4	-2
Cc1cccc(C(=O)NNC(=S)NC(=O)c2ccccc2)c1	8.6	2	0.3	0.63	i	-0.9	-6
O=S(=O)(NC1CCCCCCC1)c1ccccc1	1.9	-1	-2.4	0.63	i	1.9	1
CCC(C)(C)n1nnnc1C(C(C)C)N(CCN1CCOCC1)Cc1cc2cccc(C)c2[nH]c1=O (centres undefined)	3.9	11	7.8	0.67	·	0.3	5
CC1=C(C(=O)OCc2ccccc2)C(c2ccc(C(F)(F)F)cc2)NC(=O)N1CCCCCC(=O)O (centres undefined)	2.1	7	-2.3	0.69	i	-2.9	-3
O=C(O)c1cc(Cl)c2c(c1)[C@@H]1C=CC[C@@H]1[C@H](c1ccc(S(=O)(=O)N3CCOCC3)cc1)N2	-9.4	-7	-0.5	0.69	·	-15	1
COc1ccc(-n2c(C)cc(C(=O)COC(=O)Cn3cnc4ccccc43)c2C)cc1	-1.3	-6	-4.8	0.63	·	1.4	8
COc1ccc(CNc2nc(NCc3ccc(OC)cc3)c3[nH]cnc3n2)cc1	0.1	-9	2.6	0.69	i	-3.8	-16
Cc1ccc(Oc2ccccc2NC(=O)CSCC(=O)Nc2cc(C)on2)cc1	3.8	-15	-5.7	0.71	i	3.9	10

An excerpt of these results, with values under each structure.
Values run as follows: UCH37 DUB inh	ALR inh	LANA-H2A inh	Ecoli growth	FGF22 binding	HNF4A DNA FP	B2AR ag
- CCOC(=O)Nc1c(C(=O)OC)[nH]c2cccc(OC)c12
→ -12	20	2.3	0.73	·	-0.9	2
- Cc1cc(NC(=O)CSC2=NS(=O)(=O)c3cc(F)ccc3N2)no1
→ 2.0	1	-1.4	0.62	i	-1.6	-13
- CCn1c(N2CCN(S(=O)(=O)c3ccc(F)cc3)CC2)nc2ccccc21
→ ·	-33	-3.9	·	i	-8.6	-1
- O=C(CN1C(=O)NC(c2ccccc2)(c2ccccc2)C1=O)NCc1cccs1
→ 5.2	·	·	0.71	i	3.2	2

Further records follow.
SMILES	UCH37 DUB inh	ALR inh	LANA-H2A inh	Ecoli growth	FGF22 binding	HNF4A DNA FP	B2AR ag
Cc1ccc(CNC(=O)C2CCCCC2C(=O)O)cc1 (centres undefined)	1.6	-29	2.4	0.68	·	1.1	-3
COC(=O)c1cc2c(cc1Cl)SC(=NCCCN1CCOCC1)NS2(=O)=O	4.0	-5	-2.1	0.72	·	2.7	1
Clc1ccc(-c2csc(N3CCN(c4ccccc4)CC3)n2)cc1	3.5	·	·	0.84	·	0.5	8
O=C(O)/C=C/c1ccc(S(=O)(=O)Nc2cccnc2)cc1	3.3	·	2.3	0.63	i	-3.7	2
Cc1cccc(-n2nc3c(c2NC(=O)C(C)C)CSC3)c1	-0.1	1	1.8	0.7	i	-0.7	4
COc1ccc(CCn2cc(C#N)c(=O)[nH]c2=O)cc1OC	2.0	-12	-3.1	0.65	·	0.1	-2
N#Cc1c(-c2ccccc2)nc(SCC(=O)N2c3ccccc3Sc3ccccc32)[nH]c1=O	13	·	1.5	0.7	i	-2.8	7
Cc1ccc(OCCC(=O)OCC(=O)NC(=O)NCc2ccccc2)cc1	1.0	-13	-0.3	0.68	i	3.7	-2
CCOc1ccccc1NC(=O)CNC(=O)Cc1ccccc1	1.4	-3	2.9	0.71	i	-2.1	11
Cc1ccc(S(=O)(=O)N(C)C)cc1NC(=O)CN1C(=O)NC(Cc2c[nH]c3ccccc23)C1=O (centres undefined)	0.1	·	·	0.72	i	-2.0	0
Cc1ccccc1-c1nc(-c2ccc(Br)o2)no1	1.7	-1	1.2	0.64	i	-2.1	-10
CCc1cc2c(=O)c(-c3cscn3)coc2cc1O	-7.7	-2	0.3	0.76	·	1.3	-3
C[C@H]1CN(S(=O)(=O)c2c(F)cccc2F)CCN1S(=O)(=O)c1ccc2c(c1)OCCO2	2.7	-10	2.5	·	i	7.6	0
C/C(=N\NC(=O)c1cccc(C)c1)c1cccc(NC(=O)c2ccco2)c1	·	3	-5.8	·	·	2.9	13
COc1ccc(Cc2nnc(NC(=O)Cn3cnc4c3c(=O)n(C)c(=O)n4C)s2)cc1	1.1	-7	-1.3	0.7	·	2.5	6
COc1cc(NS(=O)(=O)c2ccc(NC(=S)NC(=O)c3ccco3)cc2)nc(OC)n1	6.9	28	2.3	0.61	i	-0.1	-5
Oc1cccc(CCc2ccccn2)c1	1.5	·	·	0.63	i	-0.5	-5
O=C1N(Cc2ccccc2)CC2(Br)COCOC12O (centres undefined)	4.1	·	·	0.67	i	-3.2	5
CCCSc1nc2ccccc2n1CC(=O)O	-2.3	-11	1.5	0.66	i	-0.2	2
CC(C)(C)c1ccc(C(=O)COC(=O)CN2C(=O)NC3(CCCC3)C2=O)cc1	-1.6	-1	-1.4	0.71	i	-1.2	5
CC1CCCC(C)N1C(=O)COC(=O)c1ccc(Br)o1 (centres undefined)	1.2	-1	3.1	0.69	i	0.1	-4
CC(C)CC(=O)N=C1SC2CS(=O)(=O)CC2N1CCc1ccccc1 (centres undefined)	0.5	-5	-1.9	0.69	·	0.2	8
Cc1nnc2ccc(-c3cccc(NC(=O)c4ccco4)c3)nn12	1.5	·	-4.2	0.65	i	-3.0	-4
CC(C)C(C(=O)NC(C)(C)C)N1C(=O)c2ccccc2C1=O (centres undefined)	2.7	-11	0.5	0.7	·	4.4	-2
O=C(Nc1cc(Cl)c(Cl)cc1Cl)c1cccnc1	4.6	6	-3.0	0.66	i	0.7	-16

The list goes on (2 carried over from the part before).
SMILES	UCH37 DUB inh	ALR inh	LANA-H2A inh	Ecoli growth	FGF22 binding	HNF4A DNA FP	B2AR ag
CC(C)C(C(=O)NC(C)(C)C)N1C(=O)c2ccccc2C1=O (centres undefined)	2.7	-11	0.5	0.7	·	4.4	-2
O=C(Nc1cc(Cl)c(Cl)cc1Cl)c1cccnc1	4.6	6	-3.0	0.66	i	0.7	-16
OC1(c2cn(Cc3ccccc3)nn2)CCCCC1	-0.4	1	2.5	0.77	·	-4.8	2
CCn1c(SCc2ccc(C(=O)Nc3nccs3)cc2)nnc1-c1ccc(NC(C)=O)cc1	-3.2	99*	-1.3	0.74	·	-0.5	-18
CC1C/C(=N/NC(=O)c2cccc(F)c2)c2ccc(O)cc2C1 (centres undefined)	·	99*	-0.3	·	·	-2.5	4
Cc1nn(C)c(=O)n1-c1ccccc1	·	·	6.1	·	i	0.2	-1
CCOc1ccccc1NC(=O)COC(=O)c1c[nH]c2ccccc12	3.0	·	·	0.73	·	14	7
O=C1c2ccccc2NC(c2cccc([N+](=O)[O-])c2)N1CCc1ccccc1 (centres undefined)	1.6	-4	-0.8	0.7	i	0.2	-3
Cc1cc(C(=O)Nc2sccc2C#N)c2ccccc2n1	4.8	-9	0.3	0.71	i	17	11
CCOC(=O)c1cnc(-c2ccccc2)nc1Oc1ccc(Cl)cc1	6.5	5	-2.4	0.83	·	0.5	2
O=C(NNC1=C(C(=O)C(F)(F)F)CCC1)c1ccncc1	0.8	9	1.5	0.72	i	0.3	5
C=CCn1cc(/C=C2/NC(=O)NC2=O)c2ccccc21	7.2	·	-2.0	0.73	i	2.9	2
COc1cccc(NC(=O)C2CCC(CNS(=O)(=O)c3cccs3)CC2)c1 (centres undefined)	0.0	-3	-3.8	0.68	i	1.7	4
Cc1ccc(C(=O)OCC(=O)N(C)C2CCS(=O)(=O)C2)cc1[N+](=O)[O-] (centres undefined)	0.7	-1	5.2	0.7	i	1.8	-2
CCSc1ncc(/C=N/Nc2ccc(F)cc2)n1C	·	-8	6.0	·	·	-5.2	-1
Cn1c(-c2ccsc2)c(-c2cccs2)c2cc(Br)ccc21	-22	-1	5.1	0.71	i	-2.4	2
CC1CCN(C(=O)c2ccc(N3C(=O)C4CCC(C)CC4C3=O)cc2)CC1 (centres undefined)	-0.1	-11	-4.6	0.68	i	0.8	-3
Cc1ccc(NNC(N)=S)cc1Cl	5.2	99*	-3.3	0.67	i	2.8	-3
O=C(CSc1nnc(-c2ccccn2)o1)Nc1ccccc1F	-1.0	-3	9.0	0.72	i	-0.7	-3
CC(C)NC(=O)N(C)C[C@H]1Oc2c(NC(=O)c3ccc(-c4nccs4)cc3)cccc2C(=O)N([C@@H](C)CO)C[C@H]1C	-0.5	-6	-3.5	·	i	1.6	-18
O=C(CNC(=O)c1ccccc1)Nc1cccc(C(F)(F)F)c1	5.7	-5	-3.0	0.7	·	0.4	-3
CC1(C)[C@H]2CC=C(CN3CCC(N4CCC(C(=O)N5CCCC5)CC4)CC3)[C@@H]1C2	-0.5	1	-4.6	0.71	i	1.8	-1
CN(CCc1ccccn1)C(=O)CCC1CCCN(C(=O)c2c3c(nn2C)CCCC3)C1 (centres undefined)	3.7	0	-3.7	0.67	i	2.9	2
Cn1c(NCc2ccco2)nc2c1c(=O)n(Cc1ccc(Cl)c(Cl)c1)c(=O)n2C	4.0	-4	3.2	0.71	·	0.5	6
CCCc1nc2ccccc2n1CCOC	-5.5	-8	2.5	0.69	·	-0.3	-3
COc1ccc(C(=O)C2CCCN(C(=O)c3csc(C(C)=O)c3)C2)c(C)c1 (centres undefined)	1.3	-5	2.2	0.7	·	-3.2	-5
Cc1ccc(C(=O)Oc2oc(-c3ccco3)nc2C=Nc2ccc(Cl)cc2)cc1	4.4	4	0.5	0.69	·	0.0	33
O=C(NC(=S)Nc1ccccc1)c1cccs1	3.4	·	-6.7	0.67	i	1.7	-8
CCOC(=O)c1cc(-c2ccc(C#N)cc2)nc2c1c(C)nn2CCC#N	-174	-3	2.8	0.74	·	-1.5	-2

3 entries already listed, sorted by the value under HNF4A DNA FP, rising.
SMILES	HNF4A DNA FP
Cc1ccccc1-c1nc(-c2ccc(Br)o2)no1	-2.1
O=C(CSc1nnc(-c2ccccn2)o1)Nc1ccccc1F	-0.7
O=C(CCN1C(=O)c2ccccc2C1=O)NCc1ccco1	1.5

An excerpt; count on the stated rates, not on these rows.
